High-throughput results as filed in PubChem.
VDR inh: inhibitors of human vitamin D receptor | P11473 | VDR-SRC2-3 peptide fluorescence polarization, 2 h | Potency, µM, for inactives: max response, negative = inhibition, usual class: inhibitors | 400,000 tested, 0.93% active; active means well fitted inhibition curve with a large enough effect; inconclusive means small, poorly fitted or top-dose-only effect, or another doubt; inactive means no such curve, though single readings can be large or run the other way; further: series mostly up to about 120 µM
Target sequence (P11473 whole entry, looked up): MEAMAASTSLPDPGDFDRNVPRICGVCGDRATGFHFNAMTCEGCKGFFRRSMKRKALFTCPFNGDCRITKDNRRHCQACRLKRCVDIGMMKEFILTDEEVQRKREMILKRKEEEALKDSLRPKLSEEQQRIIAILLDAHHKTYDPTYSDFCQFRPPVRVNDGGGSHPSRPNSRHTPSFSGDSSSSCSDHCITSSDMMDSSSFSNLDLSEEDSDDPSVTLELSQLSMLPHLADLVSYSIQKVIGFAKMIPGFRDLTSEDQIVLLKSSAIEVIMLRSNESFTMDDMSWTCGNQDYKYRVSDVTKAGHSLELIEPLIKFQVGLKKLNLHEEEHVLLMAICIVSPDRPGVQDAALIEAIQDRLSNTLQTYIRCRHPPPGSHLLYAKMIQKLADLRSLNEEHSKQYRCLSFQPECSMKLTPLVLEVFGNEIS
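FP read-out; VDR + SRC2-3 coactivator peptide; 23 nl compound by pintool; 2 h RT incubation; reagents held at 4 deg C, protected from light.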
An asterisk follows results filed as active; u = inconclusive; ! = not active in a repeat. On the % scale 0 is the no-effect control and ±100 the full control effect; potency means the concentration at half of the fitted maximal effect. Some of the compounds tested; the hit share may differ from the screen's.

SMILES	VDR inh
CCn1c(=O)cc(OCC(=O)NC2CCCCC2)c2ccccc21	-8%
COC(=O)c1ccccc1NC(=O)c1nc(-c2ccc(Cl)cc2)n2c1CCCCC2	3%
Cc1ccc(N(CC(=O)Nc2ccccc2-c2ccccc2)S(=O)(=O)c2ccccc2)c(C)c1	-13%
CCN(CC)C(=O)[C@H]1CC(CC(=O)NCCN2CCOCC2)C(=O)N2CCc3c([nH]c4ccc(OC)cc34)[C@]12C (some centres undefined)	-3%
CC(C)(C)CC(=O)NCc1cccs1	-6%
CCOC(=O)N/N=C/C=C/c1ccccc1[N+](=O)[O-]	-24%
Cc1cc(C)nc(SCC(=O)NCc2ccco2)n1	4%
COc1cccc2c1CCc1c-2nc2ccccc2c1C(=O)O	-16%
Cc1ccc(N2C(=O)c3oc4cc(C)c(C)cc4c(=O)c3C2c2cccc(O)c2)nc1 (centres undefined)	4%
CCS(=O)(=O)N1CCN(c2ccc(C(=O)NC34CC5CC(CC(C5)C3)C4)cc2[N+](=O)[O-])CC1	-9%
Cc1ccc2c(c1)NC(c1cccs1)C1=C(CC(C)(C)CC1=O)N2 (centres undefined)	6%
COc1ccc(CNC(=O)COC(=O)[C@@H]2CCCN2C(=O)c2cccs2)cc1	-10%
C#CCOCCOCCOCCNc1nc(N2CCN(C(=O)[C@H]([C@@H](C)CC)n3cc([C@@H](N)CC(C)C)nn3)CC2)nc(N2CCN(C(=O)[C@H](Cc3ccc(O)cc3)n3cc([C@@H](N)CC(C)C)nn3)CC2)n1	1%
Cn1cccc1CC(=O)N/N=C/c1ccc(Cl)cc1	-20%
O=C(CSc1nnc(Nc2ccccc2)s1)NCCN1C(=O)CSC1=O	1%
CN=c1sc(C(=O)Nc2cccc(Cl)c2)cc(=O)n1C	-2%
COc1ccc(OCC(O)CN2CC(C)OC(C)C2)cc1 (centres undefined)	-28%
CC(=O)c1cccc(NC(=O)N2C3CCCC2CC(NC(=O)C2CC2)C3)c1 (centres undefined)	2%
Cc1nn(Cc2ccccc2Cl)c(C)c1C(=O)N1CCN(c2ccccc2)CC1	2%
CC(C)NC(=O)NC(=O)COC(=O)c1ccccc1F	6%
O=C(COC(=O)c1cc(Br)ccc1O)NC12CC3CC(CC(C3)C1)C2	-2%
Cc1ccc(C2C=C(c3ccccc3)Nc3nc(NS(=O)(=O)c4ccc(C)cc4)nn32)cc1 (centres undefined)	18%
O=C(Nc1cccc(C(=O)N2CCCCCC2)c1)c1ccco1	4%
CC1(C(=O)OCC(=O)Nc2nc(-c3ccc(F)c(F)c3)cs2)CC1(Cl)Cl (centres undefined)	18%
COc1cc2ccccc2cc1C(=O)Nc1ccc(S(=O)(=O)Nc2cc(C)on2)cc1	12%
Fc1ccccc1CSc1nc2ccccc2[nH]1	-11%
Cn1cc(S(=O)(=O)NC2CCCCC2)c(=O)n(C)c1=O	-19%
CC1(C)CC(=O)C2=C(C1)N(Cc1ccccc1)C(=O)C2(NC(=O)C(C)(C)C)C(F)(F)F (centres undefined)	4%
O=c1c2ccccc2nc(-c2ccco2)n1CCc1ccc(O)cc1	1%
C/C=C/c1ccc(OCCCCN(C)Cc2ccccc2)c(OC)c1	3%
c1ccc2ncc(-n3cnnn3)cc2c1	2%
CC(=O)Nc1ccc(C(=O)Nc2ccc3c(c2)OCCO3)cc1	-20%
CN(C)c1ccc(C(=O)Nc2cccc(S(=O)(=O)N3CCCC3)c2)cc1	5%
COCCN(Cc1ccccc1)C(=O)c1ccc2c(c1)NC(=O)CS2	-6%
CC(C)(COP(=O)(O)OP(=O)(O)OC[C@H]1O[C@@H](n2cnc3c(N)ncnc32)[C@H](O)[C@@H]1OP(=O)(O)O)C(O)C(=O)NCCC(=O)NCCS (some centres undefined)	0%
CCN(CCCNC(=O)c1cc2c(=O)n(C)c3ccccc3c2s1)c1ccccc1	3%
O=C(CSc1nc(-c2ccccc2)nc2c1Cc1ccccc1O2)Nc1ccc(C(=O)O)cc1	-15%
CCCN(CCC)CCNC(=O)Cn1cnc2sc(C)c(S(=O)(=O)N3CCC(C)CC3)c2c1=O	-3%
Cc1sc2nc(CN3CCOCC3)nc(N3CCN(S(=O)(=O)c4ccccc4)CC3)c2c1C	-6%
CCOC(=O)c1cccc(NC(=O)CCc2nc(-c3ccc(C)cc3)no2)c1	8%
C/C(=N\NC(=O)Cc1c[nH]c2ccccc12)c1ccc2ccccc2c1	5%
NS(=O)(=O)c1cnccc1Nc1cccc(Br)c1	-18%
Cc1ccc(S(=O)(=O)N2[C@@H](c3ccccc3F)C(C(=O)O)=CC[C@H]2c2ccc(C(C)C)cc2)cc1	-20%
CCOC(=O)C1=CNS(=O)(=O)NC1c1ccc(Br)cc1F (centres undefined)	-9%
Cc1nc2ncnn2c(C)c1CCC(=O)N1CCN(c2cccc(Cl)c2)CC1	-2%
CCOC(=O)CNc1oc(-c2ccccc2)nc1-c1ccccc1	u
CC(C)CNC(CC(=O)O)c1ccccc1 (centres undefined)	-14%
Cc1cc(C)n(-c2ccc(C(=O)OCC(=O)Nc3ccc(Cl)c(S(=O)(=O)N(C)C)c3)cc2)n1	11%
CCC1=Nc2cc(C(=O)NCCCOC)ccc2Sc2ccc(Br)cc21	-2%
Oc1ccc(-c2nc3ccccn3c2NCc2ccco2)cc1	7%
CCc1nn2cc(-c3ccccc3)nc2s1	6%
CCNC(=S)N1CCn2cccc2C1c1ccc(F)cc1 (centres undefined)	15%
Cc1nn(C)cc1CN1CCC(n2nccc2NC(=O)CCCc2ccccc2)CC1	-3%
Cc1ccsc1CN(C)C(=O)c1cc(S(=O)(=O)N2CCOCC2)ccc1N1CCCC1	-3%
Cc1c(C(=O)Nc2c(N)nc(SCC(=O)NCC3CCCO3)[nH]c2=O)cccc1[N+](=O)[O-] (centres undefined)	-9%
Cc1cccc(NC(=O)CCN2CC(C)OC(C)C2)c1 (centres undefined)	-4%
Cc1ccc(S(=O)(=O)N2CCN(c3nc(-c4cccs4)nc4ccccc34)CC2)c(C)c1	-1%
FC(F)C(F)(F)c1cc(-c2ccc(Cl)cc2)n[nH]1	-28%
CC1=[N+](C)N(c2ccccc2)C(=O)C1N=Cc1ccccc1Cl (centres undefined)	10%
CCC1=C2CC[C@H]3C(=O)NC(=O)[C@H]3[C@H]2[C@@]2(Cc3ccccc3)C(=NCC(=O)OC)OC(=O)N2C1=O	-6%

Carrying on.
SMILES	VDR inh
CN1CCN(NC(=O)c2cccc(Br)c2)CC1	-1%
CC1CN(Cc2cc(=O)[nH]c(C3CC3)n2)CC(C)O1 (centres undefined)	-1%
Cc1ccc(-c2nc(CSc3nc4ccccc4c(=O)n3C)cs2)cc1	-7%
CCCNS(=O)(=O)c1ccc(OC)c(Cl)c1Cl	20%
Cc1ccc(C(=O)N2CCN(c3ccccc3F)CC2)cc1NC1=NC2CS(=O)(=O)CC2S1 (centres undefined)	-7%
C/C(=N/OC(=O)C1CC1c1ccccc1)c1ccccc1 (centres undefined)	-14%
COc1ccc(NC(=O)CCS(=O)(=O)c2ccc(OC)cc2)cc1	-4%
CN1CCc2cccc3c2C1Cc1ccc(O)c(O)c1-3 (centres undefined)	10µM*!
CSCCC(=O)N1CCCC(N(C)CCc2ccccc2)C1 (centres undefined)	21%
Nc1nonc1-n1nnc(C(=O)N/N=C/c2ccc(Cl)cc2Cl)c1CN1CCCC1	18%
COC(=O)c1cccc(NC(=O)CCCN2C(=O)NC3(CCCC3)C2=O)c1	-17%
CCOC(=O)c1ccc(Nc2cc(C)nc(-c3ccccc3O)n2)cc1	13%
CCC1=C(OC(=O)N(CC)CC)N2C(=O)OC(=NCC(=O)OC)[C@]2(Cc2ccccc2)[C@H]2C1=CC[C@H]1C(=O)N(CC(=O)OC)C(=O)[C@H]12	-14%
COCC(=O)N1CCC(Oc2ccc(C(=O)N3CCCCCCC3)cc2)CC1	3%
CCCCN1C(=N)N([C@@H](CCC)CN2CCC[C@H]2CN2C(N)=NC[C@@H]2Cc2ccccc2)C[C@H]1[C@H](C)CC	-16%
CC(=O)Nc1ccc(NC(=O)Cn2c(-c3ccc(F)cc3)cnc2SCC(=O)Nc2c(C)cccc2C)cc1	4%
COC(=O)c1ccccc1NC(=O)N1CCN(Cc2ccco2)CC1	-8%
CN(C(=O)c1ccc(NC(=O)Cc2ccc(NC(=O)C3CCN(C(=O)C4CCCC4)CC3)cc2)cc1)C1CC1	-7%
CCOc1ccc(N2C(=O)C3C4C=CC([C@H]5CC45)[C@@H]3C2=O)cc1 (some centres undefined)	-14%
COc1ccc(NC(=O)C(=O)NCCC2CCCCN2S(=O)(=O)c2cccs2)cc1 (centres undefined)	-1%
CCC(=O)N1c2ccc(S(=O)(=O)N3CCN(c4ccccc4)CC3)cc2CC1C (centres undefined)	-15%
COc1ccc(-n2c(SCC(=O)NC3CCCCC3)nc3ccsc3c2=O)cc1	16%
N#C/C(=C\c1c[nH]c2ccccc12)C(=O)NC1CCCC1	6%
COC(=O)C(O)(CC(=O)Nc1cc(Cl)ccc1Cl)C(F)(F)F (centres undefined)	-9%
Cc1ccccc1NC(=O)/C(C#N)=C\c1cccnc1	-9%
CCOc1ccc(C2Nc3cccc4cccc(c34)N2)cc1OC	-5%
CCCC(=O)Nc1nnc(CCc2ccccc2)s1	-27%
Cn1c2ccccc2c(=O)c2ccc(F)cc21	-11%
CC(=O)c1cccc(NC(=O)C2=CN3CCS(=O)(=O)N=C3C=C2)c1	1%
Cc1ccc(S(=O)(=O)N(CCCN2CCCC2=O)Cc2cc3c(C)ccc(C)c3[nH]c2=O)cc1	-13%
CCOc1ccc(NC(=O)/C(C=Nc2ccccc2)=C(\C)O)cc1	-25%
O=C(CC1C[C@H](C(=O)N2CCOCC2)[C@@]2(CCC3CCCC3)c3[nH]c4ccccc4c3CCN2C1=O)NCc1ccco1 (some centres undefined)	-9%
CCOC(=O)c1sc(N)c(C(N)=O)c1C	-6%
CCC1Oc2ccc(C)cc2N(CC(=O)NCc2cccs2)C1=O (centres undefined)	-10%
COc1ccc(NC(=O)C2(c3ccc(NC(=O)c4ccc(C)cc4)cc3)CCCC2)cc1	15%
CC(C)c1cc(CN2CCN(Cc3ccc(F)c(F)c3)C(CCO)C2)[nH]n1 (centres undefined)	-5%
Cc1nn(Cc2ccccc2)c(C)c1NC(=O)c1noc2c1CCc1ccccc1-2	-11%
COc1ccc2c(c1OC)C(=O)OC2c1ccc(O)cc1 (centres undefined)	-5%
CCOC(=O)CNC(=O)c1c(C)nn(-c2ccccc2)c1Cl	1%
Fc1ccc(NC(=S)NCCN2CCOCC2)c(F)c1F	-8%
Cc1ccc(-n2c3c(cc(C(=O)NC4CCSC4=O)c2=O)C(=O)CCC3)cc1 (centres undefined)	-1%
CCC(=O)N=c1sc2cc([N+](=O)[O-])ccc2n1CCOC	19%
O=C(Oc1c(Cl)cc(Cl)c2cccnc12)c1cccs1	5%
CCOc1ccc(CCNC(=O)c2ccc(CS(=O)Cc3cccc(Cl)c3)o2)cc1 (centres undefined)	u
Cc1cccc(NC(=O)CSc2ccc(-c3ccc4c(c3)OCO4)nn2)c1C	-4%
Cn1c(N)c(C(=O)COC(=O)C2CC(=O)N(Cc3ccccc3)C2)c(=O)n(C)c1=O (centres undefined)	21%
COc1ccc(NS(=O)(=O)c2cccc(C(=O)NNC(=O)CNC(=O)c3ccccc3F)c2)cc1	-21%
CC1CCCN(C(=O)c2nn(C)c3c2CSc2ccccc2-3)C1 (centres undefined)	-11%
Cc1cccc(-n2nnnc2SCC(=O)NCC2CCCO2)c1 (centres undefined)	-5%
Cc1nnc(Sc2nc3c(c(=O)[nH]c(=O)n3C)n2Cc2ccccc2)s1	-20%
O=C(c1ccc(S(=O)(=O)N2CCCCC2)cc1)N1CCN=C1SCc1cccnc1	10%
O=C(O)CCC(=O)NNC(=O)COc1cccc(Cl)c1	12%
O=C(OCC(=O)N1CCN(C(=O)c2ccco2)CC1)c1ccccc1OCc1ccc(Cl)cc1	-10%
COC(=O)/C=c1\[nH]c2nnc(C)n2c1=O	-2%
CC12CCC(O)CC1=CCC1C2CCC2(C)C1CCC21CCC(=O)O1 (centres undefined)	-3%
Cc1cccc(C)c1NC(=O)/C(C#N)=C/c1ccsc1	-2%
CC(C)(C)OC(=O)NC(Cc1ccccc1)C(=O)NC(CSC1CCCCO1)C(=O)NN (centres undefined)	-8%
COC(=O)c1ccc2c(=O)[nH]c(CSc3nc(C)cs3)nc2c1	21%

Entries from the list above that have an aryl thioether with sulfur outside any ring (12):
SMILES	VDR inh
Cc1cc(C)nc(SCC(=O)NCc2ccco2)n1	4%
O=C(CSc1nnc(Nc2ccccc2)s1)NCCN1C(=O)CSC1=O	1%
Fc1ccccc1CSc1nc2ccccc2[nH]1	-11%
O=C(CSc1nc(-c2ccccc2)nc2c1Cc1ccccc1O2)Nc1ccc(C(=O)O)cc1	-15%
Cc1c(C(=O)Nc2c(N)nc(SCC(=O)NCC3CCCO3)[nH]c2=O)cccc1[N+](=O)[O-] (centres undefined)	-9%
Cc1ccc(-c2nc(CSc3nc4ccccc4c(=O)n3C)cs2)cc1	-7%
CC(=O)Nc1ccc(NC(=O)Cn2c(-c3ccc(F)cc3)cnc2SCC(=O)Nc2c(C)cccc2C)cc1	4%
COc1ccc(-n2c(SCC(=O)NC3CCCCC3)nc3ccsc3c2=O)cc1	16%
Cc1cccc(NC(=O)CSc2ccc(-c3ccc4c(c3)OCO4)nn2)c1C	-4%
Cc1cccc(-n2nnnc2SCC(=O)NCC2CCCO2)c1 (centres undefined)	-5%
Cc1nnc(Sc2nc3c(c(=O)[nH]c(=O)n3C)n2Cc2ccccc2)s1	-20%
COC(=O)c1ccc2c(=O)[nH]c(CSc3nc(C)cs3)nc2c1	21%
